# rRNA inh HTS: reduced GFP signal of wild-type E. coli, primary screen, bacterial rRNA inhibitor project, GFP/RFP fluorescence, OD600, single point | E. coli WT GFP vs humanized-ribosome RFP mutants, 24 h; stronger effect = lower value; DMSO median 0, no signal -100 | GFP signal change (wild-type ribosome), % (concentration not given with the values) | hit rate 1.6% among 350,000 | AID 720706, 2013;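 active means significant combined selectivity score with lowered wild-type GFP, culture density cut under 30%, mutant RFP and density less affected; inactive means any of these conditions unmet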; further: one replicate is shown; some compounds called inactive have numbers as strong as hits
# AF4-AF9 inh: inhibitors of AF4 peptide binding to AF9, primary screen, biochemical, AlphaScreen, biotin-AF4 peptide, FLAG-AF9, single point; Protein AF-9 (Homo sapiens), P42568; inhibition, % at 10 µM; hit rate 0.47% among 350,000; AID 651704, 2012;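 active means every replicate reaching a set inhibition limit, whatever the replicate mean, cut at about 25% in these data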;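 further: 0% = plate neutral control median and 100% = total signal loss; the record names both 10 and 1 µM as test concentration; the first replicate is given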
# Target sequence (P42568 whole entry, looked up): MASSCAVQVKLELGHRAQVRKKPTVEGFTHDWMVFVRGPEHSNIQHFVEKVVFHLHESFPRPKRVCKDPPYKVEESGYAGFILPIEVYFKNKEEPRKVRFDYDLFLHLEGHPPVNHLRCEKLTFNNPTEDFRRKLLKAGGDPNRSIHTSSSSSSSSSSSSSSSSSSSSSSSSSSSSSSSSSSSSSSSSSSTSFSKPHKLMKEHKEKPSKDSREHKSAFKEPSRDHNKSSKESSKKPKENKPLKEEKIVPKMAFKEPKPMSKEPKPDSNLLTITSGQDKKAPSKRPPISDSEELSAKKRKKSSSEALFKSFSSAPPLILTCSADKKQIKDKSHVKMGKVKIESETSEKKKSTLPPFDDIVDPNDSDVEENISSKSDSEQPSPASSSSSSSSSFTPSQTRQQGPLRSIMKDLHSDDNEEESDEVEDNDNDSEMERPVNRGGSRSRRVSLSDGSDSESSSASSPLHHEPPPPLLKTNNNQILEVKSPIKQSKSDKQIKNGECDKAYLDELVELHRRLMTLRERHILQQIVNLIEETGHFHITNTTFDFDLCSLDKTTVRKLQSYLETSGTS
# rRNA inh HTS OD600: recorded beside rRNA inh HTS, whose call it bears; OD600 change, %; measured here: OD600 growth;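 optical density of the mix in the first replicate; 0 = DMSO median and -100 = no signal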
# rRNA inh HTS RFP: second read-out of rRNA inh HTS, no call of its own (marks repeat the call); RFP signal change, %; measured here: RFP humanized mutant strains;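 first replicate; 0 = DMSO median and -100 = no signal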
# Numbers without * were called inactive; i = inactive; / = no result given. An excerpt. The share of hits here may be higher or lower than overall.
SMILES,rRNA inh HTS,rRNA inh HTS OD600,rRNA inh HTS RFP,AF4-AF9 inh
CC(COc1ccc(/C=C/c2ccccc2)cc1)[N+](C)(C)C (configuration not stated),-55.2,-78.0,-16.4,12.8
C[C@@H]1CCCCO[C@@H](CN(C)C(=O)Nc2ccc3c(c2)OCO3)[C@H](C)CN([C@@H](C)CO)C(=O)c2cc(NC(=O)c3ccccc3)ccc2O1,-1.9,2.0,-2.9,-1.4
O=C(C[C@H]1CC[C@@H]2[C@H](COC[C@H](O)CN2CC2CCCCC2)O1)NCc1ccc(Cl)cc1,-60.0,-77.5,-20.4,1.3
C[C@@H]1CN([C@H](C)CO)C(=O)c2cccc(NS(=O)(=O)c3ccc(F)cc3)c2O[C@@H]1CN(C)CC1CCCCC1,2.6,5.0,0.6,-1.3
O=C(C[C@H]1CC[C@@H]2[C@H](COC[C@@H](O)CN2Cc2cccc(C(F)(F)F)c2)O1)NCc1ccccc1,-3.7,-30.9,1.8,3.8
COCC(=O)N1CC(=O)N2[C@H](C1)[C@H](c1ccc(-c3cccnc3)cc1)[C@@H]2CO,5.8,14.9,0.2,-3.2
CC(=O)Nc1ccc(-c2ccnc3c2CC(C)(C(=O)NC(C)C)O3)cc1 (configuration not stated),6.2,4.4,1.8,0.0
C[C@@H]1CN([C@H](C)CO)C(=O)c2cc(NS(=O)(=O)c3ccccc3)ccc2O[C@H]1CN(C)Cc1ccccc1,2.0,-0.3,-1.8,-0.5
C[C@@H]1CN([C@@H](C)CO)C(=O)Cc2cc(NC(=O)c3ccncc3)ccc2O[C@H]1CN(C)S(=O)(=O)c1cn(C)cn1,4.6,10.4,0.1,-1.1
O=C(Nc1ccc(F)cc1)N1C[C@H]2[C@@H](c3ccccc31)[C@H](CO)N2C(=O)Cc1ccncc1,-5.3,-3.3,-4.5,-4.1
CC(C)CC#Cc1ccc([C@@H]2[C@@H](CO)N3C(=O)CN(C(=O)Nc4ccc(F)cc4)C[C@@H]23)cc1,-15.5,-21.2,27.2,4.9
COc1cccc(-c2ccc3c(c2)[C@H]2[C@H](CCN2C(=O)Cc2ccccc2)[C@@H](CO)N3)c1,-59.8,-78.0,-18.8,6.9
CO[C@@H]1CN(C)C(=O)c2ccc(NC(C)=O)cc2OC[C@H](C)N(Cc2ccc(F)cc2)C[C@H]1C,-6.7,-10.2,4.0,2.5
CC(C)(C)S(=O)N1Cc2cc(C(=O)NCc3ccc4c(c3)OCO4)nc(-c3cccc(-c4ccccc4)c3)c2[C@@H]1CCO (some centres not stated),1.4,8.6,0.8,1.6
Cc1noc(C)c1NC(=O)N(C)C[C@H]1Oc2ncc(C3=CCCC3)cc2C(=O)N([C@H](C)CO)C[C@H]1C,7.1,5.9,1.7,-1.0
C[C@H]1CCCCO[C@H](CN(C)S(C)(=O)=O)[C@@H](C)CN([C@@H](C)CO)C(=O)c2cc(NC(=O)c3ccccc3)ccc2O1,-1.1,-2.8,1.9,-6.0
CCCc1cn(CC[C@@H]2CC[C@@H](NS(=O)(=O)c3ccccc3Cl)[C@@H](CO)O2)nn1,1.3,-0.8,0.8,-0.4
C[C@@H]1CN([C@H](C)CO)S(=O)(=O)c2ccc(C3=CCCC3)cc2O[C@H]1CN(C)Cc1cncnc1,0.5,0.7,0.8,4.8
CO[C@H]1CN(C)C(=O)c2cc(NC(=O)C3CCC3)ccc2OC[C@@H](C)N(C(=O)CN(C)C)C[C@@H]1C,2.4,0.6,-2.7,0.3
O=C(C[C@@H]1C[C@@H]2c3cc(NC(=O)NC4CCCC4)ccc3O[C@@H]2[C@@H](CO)O1)NCc1cccc(F)c1,0.6,-6.3,1.9,-0.8
COC(=O)[C@@]12C[C@@H](CC(=O)NCc3ccc(C)o3)C(=O)N(Cc3ccccc3)C1=CCC(C)(C)C2,-2.2,-8.3,-0.8,4.0
COc1ccc(-c2nc3cc(C)c(Br)c(C)n3c2Cc2ccccc2C(F)(F)F)cc1OC,1.1,-1.9,-1.4,2.0
C[C@@H]1CN([C@H](C)CO)C(=O)Cc2cc(NC(=O)CCN3CCOCC3)ccc2O[C@@H]1CN(C)Cc1ccccc1,3.6,14.8,0.0,4.3
Cc1ccccc1-c1ccc2c(c1)O[C@H](CN(C)Cc1ccc(C(=O)O)cc1)[C@H](C)CN([C@@H](C)CO)S2(=O)=O,-4.3,-7.9,-5.1,1.9
O=C(C[C@@H]1C[C@@H]2c3cc(NC(=O)Nc4ccc(C(F)(F)F)cc4)ccc3O[C@@H]2[C@H](CO)O1)NCc1cccnc1,1.9,1.7,-0.7,-1.2
C[C@@H]1CCCCO[C@H](CN(C)Cc2ccc(C(F)(F)F)cc2)[C@H](C)CN([C@H](C)CO)C(=O)c2cc(NC(=O)CCCN(C)C)ccc2O1,1.9,-7.8,6.6,9.9
C[C@@H]1CN([C@H](C)CO)C(=O)Cc2cc(NS(=O)(=O)c3ccc(Cl)cc3)ccc2O[C@@H]1CN(C)CC1CCCCC1,-10.3,-33.2,14.8,6.4
CCc1ccc(N2CC(C(=O)Nc3ccc(OC)c(S(=O)(=O)N4CCOCC4)c3)CC2=O)cc1 (configuration not stated),4.9,3.2,-0.9,3.3
CC(=O)N1CCCCN2[C@H](CO)[C@@H](c3ccc(C#Cc4ccccc4F)cc3)[C@@H]2C1,-56.9,-69.4,-9.5,-5.9
CCCC#Cc1cnc2c(c1)C(=O)N([C@H](C)CO)C[C@H](C)[C@@H](CN(C)C(=O)Cc1ccccc1)O2,-2.7,-7.2,0.6,-2.6
CC(C)NC(=O)N(C)C[C@H]1Oc2c(NC(=O)C3CCOCC3)cccc2C(=O)N([C@H](C)CO)C[C@H]1C,6.0,8.9,0.6,-4.6
COc1ccc(CN(C)C[C@H]2Oc3ccc(NC(=O)CCC(F)(F)F)cc3CC(=O)N([C@H](C)CO)C[C@H]2C)cc1,5.1,15.9,-1.2,-0.7
CC=Cc1ccc2n(c1=O)C[C@H]1[C@H](CO)[C@@H](C(=O)N3CCCCC3)[C@@H]2N1C(=O)C1CCC1 (mixture of isomers),3.1,3.0,-0.4,0.3
CCC(=O)N(C)C[C@H]1Oc2cc(C#CC3CCCC3)ccc2S(=O)(=O)N([C@@H](C)CO)C[C@H]1C,-3.4,-14.1,5.1,3.3
CCCNC(=O)C[C@@H]1CC[C@@H]2[C@H](COC[C@H](O)CN2C(=O)c2ccc(F)cc2)O1,i,/,/,-1.8
CCN(C[C@H]1[C@H](c2ccc(-c3ccccc3)cc2)[C@H](CO)N1C(C)=O)C(C)=O,-1.8,-2.7,-0.5,3.0
C[C@H]1CN([C@@H](C)CO)C(=O)c2cccc(NC(=O)c3nc4ccccc4s3)c2O[C@H]1CN(C)CC1CC1,-6.9,-5.7,3.7,5.6
CCCCn1nnnc1C(c1ccccc1)N1CCN(C)CC1 (configuration not stated),5.0,14.2,-6.5,-2.0
O=C(C[C@H]1CC[C@@H]2[C@H](COC[C@H](O)CN2C(=O)c2ccc3c(c2)OCO3)O1)NC1Cc2ccccc2C1,-1.3,-3.2,-2.2,-1.5
COC(=O)[C@@H]1[C@@H](CO)[C@@H]2Cn3c(ccc(-c4ccccc4OC)c3=O)[C@@H]2N1C(=O)c1cnccn1,2.4,5.9,1.0,-1.5
CCCN1C[C@H](C)[C@@H](OC)CN(C)C(=O)c2cc(NC(=O)C3CCOCC3)ccc2OC[C@H]1C,2.7,-0.1,-0.7,0.1
C[C@@H]1CCCCO[C@H](CN(C)Cc2ccc(Cl)c(Cl)c2)[C@H](C)CN([C@@H](C)CO)C(=O)c2cc(NS(=O)(=O)c3cn(C)cn3)ccc2O1,1.0,-30.8,35.8,9.6
Nc1nc2ncccn2c1-c1ccc(F)c(F)c1,9.2,5.6,-0.5,0.5
C[C@H](CO)N1C[C@H](C)[C@H](CN(C)C(=O)c2ccc3c(c2)OCO3)Oc2cc(-c3ccncc3)ccc2S1(=O)=O,5.0,4.4,-2.4,0.2
CCOc1ccc(-c2cc(C(=O)Nc3ccc(C)c(NS(C)(=O)=O)c3)[nH]n2)c(C)c1,-8.9,-6.6,-8.4,-1.3
C=CCN(C(C(=O)OC)C(C)C)S(=O)(=O)CCNCc1ccccc1 (configuration not stated),-1.4,-1.1,0.9,3.1
CC(C)C#Cc1ccc2c(c1)O[C@H](CN(C)Cc1cncnc1)[C@H](C)CN([C@H](C)CO)S2(=O)=O,-2.4,-5.5,-0.5,1.5
C[C@H]1CN([C@@H](C)CO)C(=O)Cc2cc(NC(=O)Cc3cn(C)c4ccccc34)ccc2O[C@H]1CN(C)Cc1ccc(C(=O)Nc2ccccc2N)cc1,-1.8,1.3,-0.1,2.7
COC(=O)N1CCCCC1c1cc(C(=O)Nc2cccc3c2CCCC3)no1 (configuration not stated),-13.2,-37.2,-6.5,-2.2
C[C@H](CO)N1C[C@H](C)[C@H](CN(C)C(=O)Nc2ccc(F)cc2)Oc2ncc(C#CC(C)(C)O)cc2C1=O,1.1,3.1,-1.9,-5.1
C[C@@H]1CCCCO[C@@H](CN(C)Cc2ccccc2)[C@H](C)CN([C@@H](C)CO)C(=O)c2cc(NC(=O)CCC(F)(F)F)ccc2O1,1.4,-0.8,-0.8,-4.8
C[C@H](CO)N1C[C@H](C)[C@H](CN(C)Cc2ccccn2)Oc2cc(C#C[C@@H](C)O)ccc2S1(=O)=O,0.9,11.6,-3.1,1.6
C[C@@H]1CN([C@@H](C)CO)C(=O)c2cc(NS(=O)(=O)c3ccc(Cl)cc3)ccc2O[C@@H]1CN(C)C(=O)NC1CCCCC1,-3.5,-13.9,3.6,4.0
CC(C)C#Cc1ccc([C@H]2[C@@H](C#N)N(C(=O)CN(C)C)[C@H]2CO)cc1,5.1,-1.5,3.4,0.6
CC(C)NC(=O)N1[C@@H](CO)[C@@H](c2ccccc2)C12CN(Cc1ccc(Cl)cc1)C2,-8.8,-15.3,3.5,6.1
CCC(=O)NC[C@@H]1[C@@H](c2ccc(C3=CCCC3)cc2)[C@@H](CO)N1CC1CC1,-1.3,8.0,-3.2,-2.3
COc1cc(CN2CC3(CN(C(=O)Nc4c(C)noc4C)C3)c3c([nH]c4cc(OC)ccc34)[C@H]2CO)cc(OC)c1,0.5,0.2,-1.0,-0.8
C[C@@H]1CN([C@H](C)CO)C(=O)c2cc(C#CC3CCCC3)cnc2O[C@@H]1CN(C)S(=O)(=O)c1cccc(F)c1,2.1,2.9,-1.6,1.9
CC(C)NC(=O)Nc1ccc2c(c1)C(=O)N([C@@H](C)CO)C[C@@H](C)[C@H](CN(C)Cc1ccccc1)OCCCC[C@@H](C)O2,1.6,1.2,-0.2,-6.9
Cc1noc(C)c1NC(=O)N(C)C[C@@H]1Oc2ccc(NS(C)(=O)=O)cc2C(=O)N([C@H](C)CO)C[C@H]1C,-3.2,-12.5,-2.2,-2.2
# Continuation:
SMILES,rRNA inh HTS,rRNA inh HTS OD600,rRNA inh HTS RFP,AF4-AF9 inh
COc1ccc2c3c(n(C)c2c1)[C@@H](CO)NCC31CCN(Cc2cc(-c3ccccc3)on2)CC1,-55.3,-79.9,-16.2,36.7*
N#C[C@H]1[C@@H](c2ccc(C3=CCCC3)cc2)[C@@H](CO)N1C(=O)c1ccccn1,-1.7,4.6,-0.6,-1.9
COc1ccc(NC(=O)Nc2ccc3c(c2)C(=O)N([C@@H](C)CO)C[C@@H](C)[C@@H](CN(C)S(=O)(=O)c2ccccc2)O3)cc1,-7.6,-24.2,-5.9,3.0
Cc1cccc(S(=O)(=O)N(C)C[C@@H]2OCc3cn(nn3)CCCC(=O)N([C@@H](C)CO)C[C@@H]2C)c1,0.2,2.4,1.1,-0.2
C[C@@H]1CN([C@@H](C)CO)C(=O)c2cc(NC(=O)c3ccncc3)ccc2O[C@@H](C)CCCCO[C@@H]1CN(C)C(=O)C1CCCCC1,-4.9,-6.8,0.8,-0.4
CCC(=O)N(C)C[C@H]1Oc2ncc(C#C[C@@H](C)O)cc2C(=O)N([C@H](C)CO)C[C@@H]1C,-2.1,7.6,-2.7,0.8
C[C@H]1CN([C@@H](C)CO)C(=O)c2cc(-c3ccccc3F)cnc2O[C@H]1CN(C)C(=O)C1CCC1,-1.4,3.1,0.2,-1.8
N#C[C@H]1[C@@H](c2ccc(C#CC3CC3)cc2)[C@@H](CO)N1C(=O)Cc1ccccn1,0.5,-8.6,-0.8,0.3
CCC(=O)N1CC2(C1)[C@H](c1ccc(-c3cccc(F)c3)cc1)[C@@H](CO)N2CC1CC1,-6.0,-7.2,7.6,-0.9

# Some of the entries above, set out differently.
canonical_smiles	rRNA inh HTS	rRNA inh HTS OD600	rRNA inh HTS RFP	AF4-AF9 inh
CC(=O)N1CCCCN2[C@H](CO)[C@@H](c3ccc(C#Cc4ccccc4F)cc3)[C@@H]2C1	-56.9	-69.4	-9.5	-5.9
C[C@@H]1CCCCO[C@H](CN(C)Cc2ccc(Cl)c(Cl)c2)[C@H](C)CN([C@@H](C)CO)C(=O)c2cc(NS(=O)(=O)c3cn(C)cn3)ccc2O1	1.0	-30.8	35.8	9.6
C[C@H]1CN([C@@H](C)CO)C(=O)Cc2cc(NC(=O)Cc3cn(C)c4ccccc34)ccc2O[C@H]1CN(C)Cc1ccc(C(=O)Nc2ccccc2N)cc1	-1.8	1.3	-0.1	2.7
C[C@@H]1CCCCO[C@H](CN(C)Cc2ccc(C(F)(F)F)cc2)[C@H](C)CN([C@H](C)CO)C(=O)c2cc(NC(=O)CCCN(C)C)ccc2O1	1.9	-7.8	6.6	9.9
CCOc1ccc(-c2cc(C(=O)Nc3ccc(C)c(NS(C)(=O)=O)c3)[nH]n2)c(C)c1	-8.9	-6.6	-8.4	-1.3

# Bioassay records: PubChem, Broad Institute
